# VACV Venus inh – vaccinia inhibition (Venus reporter) | Vaccinia virus Venus reporter expression, fluorescence | 0.46% of 330,000 active | Potency, µM (titrated, usually from 36.5 µM), without a hit: at the highest dose activity change, negative = inhibition, most hits filed as inhibitors | AID 720580; active means well fitted inhibition curve with a large enough effect; inconclusive means small, poorly fitted or top-dose-only effect; inactive means no such curve, though single readings can be large or run the other way; tested in A549 cells; also: nearly all actives have a fitted effect of over 30% in size; inactives centre near -10
# VACV mCherry inh – vaccinia inhibition (mCherry reporter). Potency, µM (highest dose often 36.5 µM), for inactives: at the highest dose activity change, negative = inhibition, actives largely listed as inhibitors. Vaccinia virus mCherry reporter infection, fluorescence; about a quarter of the inactives have no number. AID 720579. 0.63% of 310,000 active; active = well fitted inhibition curve with a large enough effect; inconclusive = small, poorly fitted or top-dose-only effect; inactive = no such curve, though single readings can be large or run the other way; tested in A549 cells; also: nearly all actives have a fitted effect of over 35% in size; inactives centre near -10
# Active calls of the source: *; i = inactive; ? = inconclusive; / = not tested or not shown; [ ] = remark or other dose. % is scaled to controls: 0 for no effect and ±100 for the full control effect; potency is read from the fitted curve at half-maximal effect. The order is random. Share with any hit: about 0.82%.
# The first three entries, to show the layout:
SMILES,VACV Venus inh,VACV mCherry inh
O=C(CCCC(=O)Nc1cccc(Br)c1)N/N=C/c1cc([N+](=O)[O-])ccc1O,-23%,?
COCCN1CC(C(=O)N2CCC(Oc3ccccc3OC)CC2)CCC1=O (stereo not given),-11%,i
N#Cc1ccccc1CSc1nc(N)cc(N)n1,-10%,-15%

# The list itself, from the first entry:
SMILES,VACV Venus inh,VACV mCherry inh
O=C(CCCC(=O)Nc1cccc(Br)c1)N/N=C/c1cc([N+](=O)[O-])ccc1O,-23%,?
COCCN1CC(C(=O)N2CCC(Oc3ccccc3OC)CC2)CCC1=O (stereo not given),-11%,i
N#Cc1ccccc1CSc1nc(N)cc(N)n1,-10%,-15%
O=C(Nc1ccc(Cl)cc1)N1CC=CCC1,-17%,/
O=c1c2ccccc2nc(-c2ccccc2)n1-c1ccc(O)cc1,-3%,-1%
CCCCN(CCO)CCCC,-7%,-15%
C=CCNC(=O)c1ccccc1NC(=O)c1ccccc1SC,-11%,-4%
CCOC(=O)c1scc(-c2ccc(C)cc2)c1S(=O)(=O)Nc1cc(OC)ccc1OC,2%,-12%
Cc1nc2c(Cl)c(C)nn2c2c1CCC2,-18%,i
COc1ccc(CCNC(=O)COc2cc(O)c3c(c2)OC(C)(C)CC3=O)cc1,1%,i
COC(=O)c1ccc(C(=S)N2CCCCC2)cc1,-8%,-13%
Cn1c(=O)n(C)c2cc3[nH]cnc3cc21,-1%,-13%
Cc1nn(-c2ccccc2)c(Cl)c1/C=N/Nc1nnc(C)c(=O)[nH]1,-17%,-3%
CC1(C)CC(NC(=O)c2sc3cc(Cl)ccc3c2Cl)CC(C)(C)N1,-7%,-11%
COc1cccc(CNC(=O)CSc2nc(=O)n(Cc3ccncc3)c3c2CCC3)c1,-8%,i
CNC(=O)C1CCC(Cn2c(=O)c3sccc3n(CC(=O)NCc3ccccc3)c2=O)CC1 (stereo not given),-5%,-11%
Cn1sc(=O)c2cc(S(=O)(=O)NC3CC3)ccc21,-3%,?
OCCNCc1cccc(-c2ccccc2)c1O,-1%,?
Cc1c(NC(=O)c2ccc(N(Cc3ccccc3)S(C)(=O)=O)cc2)c(=O)n(-c2ccccc2)n1C,-7%,-15%
COc1cccc(C2=CC(=O)CC(c3ccco3)C2)c1 (stereo not given),-9%,i
CN(C)CCC(O)(c1ccccc1)c1ccccc1Cl (stereo not given),-2%,i
COc1cc(N(C)C)c(OC)cc1/C=C/c1ccnc2ccccc12,23%,-28%
COc1ccc(CCNCc2csc3nc4ccccc4n23)cc1OC,?,/
CCOC(=O)c1cnc2ccc(OC)cc2c1NCCc1ccc(OC)c(OC)c1,?,?
CC(C)C(=O)NCc1cc(-c2ccc(Cl)cc2)no1,2%,-15%
CCn1c(SCC(=O)Nc2cc(Cl)ccc2OC)nc2c([nH]c3ccccc32)c1=O,-1%,10%
Clc1ccc(N2O[C@H]3C=C[C@@H]2C3)nc1,4%,21%
Cn1c(=O)c2[nH]c(NN=Cc3ccc(F)cc3)nc2n(C)c1=O,0%,-21%
COc1ccccc1CNC(=O)COC(=O)CCN=C1NS(=O)(=O)c2ccccc21,-11%,i
COc1ccc(C)cc1S(=O)(=O)N1CCN(C(=O)c2ncoc2-c2ccccc2F)CC1,-8%,-17%
O=C(COc1ccc(Br)cc1)Nc1ccncc1,?,/
CC(=O)Nc1nc(=S)ss1,-13%,i
Cc1ccc(C(=O)NCc2ccccn2)c(Cl)c1,-10%,/
CC(C)Oc1ccc(CC2CCC(=O)N(C)C2=O)cc1 (stereo not given),-2%,-13%
C/C(=N\NC(=O)COc1ccc(C)cc1[N+](=O)[O-])c1cccs1,-4%,-16%
NC(=O)c1nsc(C(=O)N(c2cccc(F)c2)C(C(=O)NCC2CCCO2)c2c[nH]c3ccccc23)c1N (stereo not given),15%,-8%
COc1cc2c(c(OC)c1OC)C(=O)C(=Cc1ccccc1)O2,-13%,-1%
C/C(=N\Nc1nccnc1Cl)c1ccc(Cl)c(Cl)c1,-10%,-9%
COc1ccc(N(C(=O)c2snc(C(N)=O)c2N)C(C(=O)NCc2ccccc2)c2ccc(O)cc2)cc1OC (stereo not given),-5%,-11%
COc1ccc(-c2nn(-c3ccccc3)cc2/C=N/N=C(N)N)cc1OC,?,?
CSC1=NC=C(C#N)C2=NC(c3ccc(Cl)cc3)NN12 (stereo not given),-17%,6%
Cc1ccc(NS(=O)(=O)c2cccc(C(=O)N/N=C/c3ccc4c(c3)OCCO4)c2)c(C)c1,-15%,-23%
O=C1C2CC(O)CN2C(=S)N1Cc1ccccc1 (stereo not given),-11%,i
CCN(CC(=O)Nc1ccc2c(c1)OCCO2)C(=O)c1cc(S(=O)(=O)N2CCOCC2)ccc1F,-12%,i
CCOc1ccc(NC(=O)COC(=O)c2ccccc2OCC(=O)N(C)C)cc1,-12%,-7%
O=C(c1ccc(NC2=NC3CS(=O)(=O)CC3S2)cc1)N1CCN(c2ccc(F)cc2)CC1 (stereo not given),-14%,-1%
C=CCOC(=O)C1=C[C@@H](c2cn(C(C)=O)c3ccccc23)C[C@@H](OCCCCO)O1,-10%,i
COC(=O)c1ccccc1NC(=O)CSc1nnc(-c2ccncc2)o1,-1%,-16%[1.46 µM]
COc1ccc(NC(=O)CSC2=Nc3ccccc3C3=NC(CC(=O)NCCc4ccccc4)C(=O)N23)cc1 (stereo not given),-6%,-12%
Fc1ccccc1COc1ccc(Br)cc1CNCc1ccncc1,-24%,-26%
# (listing goes on)
SMILES,VACV Venus inh,VACV mCherry inh
COc1ccc(Br)c(C(=O)NNC(=O)c2ccc(NS(=O)(=O)c3cccs3)cc2)c1,-10%,-11%
O=C(COC(=O)c1ccc(F)c(S(=O)(=O)N2CCOCC2)c1)c1ccc(Br)cc1,-12%,-16%
CS(=O)(=O)c1nc(S(=O)(=O)c2ccc(Cl)cc2)c(N2CCOCC2)s1,-9%[7.34 µM],-27%[7.34 µM]
COC(=O)c1ccc(-c2noc(CN3CCCC(CNC(C)=O)C3)n2)cc1 (stereo not given),2%,7%
CCNC(=O)COC(=O)CCC(=O)c1cccs1,-11%,i
CCCOc1ccc(-c2c(C(=O)N/N=C(\C)c3cccs3)nnn2-c2nonc2N)cc1,0%,i
O=C(NCCCO)C12CC3CC(CC(C3)C1)C2,-16%,i
CC(=C/c1ccco1)/C=N/NC(=O)CSc1nnc(SCc2ccc(C)cc2)s1,-25%,-16%
COc1ccc(OCc2ccc(-c3nc(C#N)c(NCc4ccc(F)cc4)o3)o2)cc1,-3%,-4%
C=CCNC(=S)N1CCN(C2CCCCC2)CC1,5%,-14%
CCc1nc2ccccc2c(=O)n1NC(=O)c1c(O)c2ccccc2n(CC)c1=O,1%,0%
CN(CC(=O)N/N=C/c1ccc(F)cc1)S(=O)(=O)c1ccccc1,-13%,i
CC1CCN(CC(=O)Nc2ccccc2C#N)CC1,-4%,/
CN(CCO)C(=O)c1cn(C2CCN(Cc3cccc4ccccc34)CC2)nn1,-6%,-10%
Cc1ccc(N(C(=O)c2csnn2)C(C(=O)NC2CCCCC2)c2ccccn2)cc1 (stereo not given),4%,-3%
Cc1cc(NCc2ccco2)nc2cc(O)ccc12,-8%,i
O[C@@H]1CN(Cc2cccs2)[C@@H](c2ccc(Cl)cc2)C[C@H]1n1cc(C2CC2)nn1,-26%,-27%
CCN(CC)C(=O)c1ccc(/C=C/c2c[nH]c3ccccc23)[n+](C)c1,37%[activator],-12%
COc1ccccc1NC(=O)c1ccc(CSc2ccccc2)o1,-14%,-11%
c1ccc(CCN2CCCCC2)nc1,18%,-15%
COc1ccc([C@H]2C[C@H](O)[C@@H](n3cc(COC(=O)c4ccccc4)nn3)CN2Cc2cccs2)cc1,-11%,-8%
COc1ccc(C(=O)N/C(=C\c2ccccc2)C(=O)NCc2cccnc2)cc1,-3%,-6%
CCN1CCN(CC(=O)Nc2ccc(N(C)C)cc2)CC1,-6%,i
Cc1ccnc(NCn2nnc3ccccc32)c1,-8%,?
CCCCCCCN(C(=O)CCl)c1ccccc1C,-19%,-19%
CCc1nc2c(OCc3ccc(F)cc3)cccn2c1N(C)C(=O)CC(C)C,-8%,i
CCOC(=O)C(=O)Nc1ncc(Cl)s1,0%,-11%
O=C(COc1ccc(Br)cc1)Nc1cccc2cccnc12,-10%,-13%
COc1ccccc1[C@]1(C)ON(c2ccccc2C(F)(F)F)C1=O,?,?
CCOC(=O)N1CCC(N2Cc3cccc(C(=O)Nc4cccc(F)c4)c3C2=O)CC1,-3%,i
O=C1c2ccccc2C(c2nnnn2-c2ccc3c(c2)OCCO3)N1Cc1ccc(F)cc1 (stereo not given),-10%,-9%
CCN1CCN(C(=O)/C=C/c2ccc(F)cc2)CC1,-4%[7.34 µM],i[7.34 µM]
NC(=O)NC(=O)COC(=O)CCSc1ccccc1,5%,0%
Cc1cc(F)ccc1NC(=O)C(C(C)C)N1Cc2ccccc2C1=O (stereo not given),-2%,-13%
COc1ccc(CC(=O)N/N=C/c2cccn2-c2ccc([N+](=O)[O-])cc2)cc1OC,-21%,?
COc1ccc(-n2c(SCC(=O)Nc3cc(C)on3)nc3c(c2=O)SC(C)C3)cc1 (stereo not given),-25%,-3%
CCOC(=O)C1=C(CN2CCN(c3ccccc3OC)CC2)NC(=O)NC1c1ccccc1 (stereo not given),-4%,-11%
COc1ccc(O)c(CN2CCCN(c3nc(C)c4cc(C)c(C)cc4n3)CC2)c1,-8%,-1%
NC(=O)C1CCN(c2ccc([N+](=O)[O-])cc2Cl)CC1,-15%,-26%
C=CC[C@H](CC(=O)N[C@H](CO)Cc1ccccc1)C(=O)N[C@H](COC(=O)[C@@H](CC=C)CC(=O)OC(C)(C)C)Cc1c[nH]c2ccccc12,?,i
CC(=NNC(N)=O)C1CC2CCC1CC2 (stereo not given),0%,-13%
O=C1c2ccccc2C(O)N1c1ccccc1 (stereo not given),-5%,-13%
COc1ccc(N2CCN(C(=O)CCNC(=O)c3ccccc3)CC2)cc1,-17%,i
CC(=O)OC[C@H]1O[C@@H](n2ncc(=O)[nH]c2=O)[C@H](OC(C)=O)[C@@H]1OC(C)=O,1%,-27%
C[C@H](CO)N1C[C@H](C)[C@@H](CN(C)S(=O)(=O)c2ccccc2)Oc2ccc(NC(=O)Nc3ccc4c(c3)OCO4)cc2C1=O,-20%,-30%
COc1ccc(OC)c(-c2noc(N3CCN(c4ccc(Cl)cc4)CC3)n2)c1,-17%,-14%
Cc1cc(C)n(-c2nc(NCC3CCCO3)c3c4c(sc3n2)COC(C)(C)C4)n1 (stereo not given),?,/
CCN1C(=NCCc2cccnc2)N[C@@H](c2ccccc2)C(C(=O)OC)=C1C,-16%,-11%
COC(=O)CCC(=O)Nc1cc(S(=O)(=O)Nc2ccc(Cl)cc2)ccc1N1CCOCC1,15%,5%
CC(NS(=O)(=O)c1ccc(OCC(=O)N2CCOCC2)c(Cl)c1)c1ccccc1 (stereo not given),-13%,/

# Reprinted at random: two records from the list.
SMILES,VACV Venus inh,VACV mCherry inh
COc1ccc(OC)c(-c2noc(N3CCN(c4ccc(Cl)cc4)CC3)n2)c1,-17%,-14%
COC(=O)CCC(=O)Nc1cc(S(=O)(=O)Nc2ccc(Cl)cc2)ccc1N1CCOCC1,15%,5%

# Entries of single compounds as entered above. Values in the order: VACV Venus inh	VACV mCherry inh
# CC(NS(=O)(=O)c1ccc(OCC(=O)N2CCOCC2)c(Cl)c1)c1ccccc1 (stereo not given) across the screens: -13%	/
# COC(=O)CCC(=O)Nc1cc(S(=O)(=O)Nc2ccc(Cl)cc2)ccc1N1CCOCC1 across the screens: 15%	5%
# COc1ccc(N2CCN(C(=O)CCNC(=O)c3ccccc3)CC2)cc1 across the screens: -17%	i
# CCN1C(=NCCc2cccnc2)N[C@@H](c2ccccc2)C(C(=O)OC)=C1C across the screens: -16%	-11%
# CC(=O)OC[C@H]1O[C@@H](n2ncc(=O)[nH]c2=O)[C@H](OC(C)=O)[C@@H]1OC(C)=O across the screens: 1%	-27%

# The listing continues:
SMILES,VACV Venus inh,VACV mCherry inh
CCN(C[C@H]1N[C@@](Cc2ccccc2)(C(=O)OC)[C@H]2C(=O)N(Cc3ccccc3)C(=O)[C@@H]12)C(=O)COc1ccccc1,-18%,-26%
O=C(NC1CCCCCCC1)c1ccccc1-c1ccccc1,-3%,-12%
O=C(CCN1C(=O)S/C(=C\c2ccccc2)C1=O)N1CCOCC1,-8%,-14%
O=C(NC(Cc1c[nH]c2ccccc12)C(=O)O)/C(=C\c1ccccc1)NC(=O)c1ccccc1 (stereo not given),-7%,-17%
C[C@H](NC(=O)c1nc[nH]c1C(=O)N[C@@H](Cc1ccccc1)C(=O)OC(C)(C)C)C(=O)OCc1ccccc1,-6%,i
O=C(NCCCN1CCCC1=O)c1ccc(S(=O)(=O)Nc2ccccc2F)cc1,-12%,i
C/C(=N\Nc1ccc(S(N)(=O)=O)cc1[N+](=O)[O-])c1cccnc1,-5%,-1%
CCCc1nnc(NC(=O)c2cc(=O)c3ccccc3o2)s1,-5%,-9%
COc1ccccc1-n1c(SCC(=O)Nc2cc(C)on2)nc2c([nH]c3ccccc32)c1=O,-16%,-20%
CC(NC(=O)C(C)N1c2cccc3cccc(c23)S1(=O)=O)c1ccccc1 (stereo not given),-17%,-17%
COc1ccc(-c2ccc(-c3noc(-c4ccccc4)n3)c(OC)n2)cc1,-3%,-10%
COc1ccc2c(c1)c1c(c(=O)n(Cc3ccccc3)c(=O)n1CC(=O)Nc1ccc(C)cc1C)n2C,4%,-5%
CC[C@@H](C)[C@H](CNC)NC[C@@H](Cc1cccc2ccccc12)NCCc1cccc(C(F)(F)F)c1,?,?
Cc1ccccc1Cn1c(=N)n(CC(=O)c2ccco2)c2ccccc21,-11%,/
